D2 PAM – positive allosteric modulators of human D2 dopamine receptor; potentiation, % (no concentration beside the values); 360,000 tested, 0.23% active; DiscoveRx D2 beta-arrestin cells, luminescence, 90 min; 100% = 57 uM dopamine signal; AID 624464; active = potentiation of 50% or more; inconclusive = 30% to 50%; inactive = 30% or less;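 further: compound concentration not given in the record; tested on top of an EC20 dose of dopamine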
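PathHunter beta-arrestin assay in DiscoveRx D2 cells. Compounds were added with an EC20 of dopamine (50 nM final) for 90 min at 37 deg C. Luminescence was read 1 h after detection reagent, with 57 uM dopamine as the EC100 control.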
D2 agonist – agonists of human D2 dopamine receptor (beta-arrestin); DiscoveRx PathHunter D2 beta-arrestin, luminescence, 90 min; 100% = 57 uM dopamine signal; activation, % (concentration not given with the values); 360,000 tested, 0.084% active; in the data active = activation above about 40%; inconclusive = about 15% to 40%; inactive = below about 15%; further: compound concentration not given in the record; the text of the record calls up to 30% inactive
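Agonist mode: compounds alone added to overnight-plated D2 PathHunter cells for 90 min at 37 C, with 57 uM final dopamine (EC100) defining full response. Beta-arrestin recruitment detected by chemiluminescent reagent, read after 1 h at ambient temperature.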
gsp ag – agonists of gsp mutant (McCune-Albright syndrome); gsp mutant cells, cAMP HTRF, 30 min; control for the full effect not named in the record; Potency, µM (highest dose often 76.9 µM), inactives show top-dose activation (cAMP increase), usual class: activators; 340,000 tested, 0.13% active; AID 624287; active = well fitted activation curve with a large enough effect; inconclusive = small, poorly fitted or top-dose-only effect, or another doubt; inactive = no such curve, though single readings can be large or run the other way; cell line not stated here;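 further: phosphodiesterase inhibitor Ro 20-1724 added with compounds to block cAMP breakdown; potency means the concentration at half of the fitted maximal effect; nearly all actives have a fitted effect of over 60% in size; about a fifth of the inactives were tested at one dose only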
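Cells in DMEM/10% FBS with G418 were pretreated with compounds in DMSO plus […] (300 uM stock) for 30 min at 37C. cAMP was measured by HTRF (cAMP-d2 plus anti-cAMP antibody-K) after 30 min at room temperature.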
gsp antag – antagonizes gsp, the McCune-Albright syndrome mutation. gsp-mutant cells, cAMP HTRF, 30 min; control for the full effect not named in the record. Potency, µM (series often up to 76.9 µM), inactives show top-dose activity change, negative = inhibition, actives largely listed as inhibitors. 340,000 tested, 0.4% active. AID 624288; active = falling curve of any shape with a large fitted effect; inconclusive = falling curve, mostly with a smaller effect; inactive = flat or rising curve; cell line not stated here;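 further: intracellular cAMP measured with PDE inhibitor Ro 20-1724 present during compound exposure; potency means the concentration at half of the fitted maximal effect; on the % scale 0 is the no-effect control and ±100 the full control effect; nearly all actives have a fitted effect of over 65% in size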
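Cells, 2000/well, grown 16–24 h in DMEM 10% FBS with 0.5 mg/ml G418, then compounds plus […] (300 uM addition stock), 30 min at 37C. cAMP read by HTRF (cAMP-d2 and anti-cAMP antibody-K in lysis buffer) after 30 min RT.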
CtBP-E1A inh – inhibitors of CtBP/E1A interaction. activity change, % (test concentration not listed). AlphaScreen GST-E1A/His-CtBP binding, 1536-well; hits give low values; control for the full effect not named in the record. AID 651724. 340,000 tested, 0.49% active; in the data active means activity change below about -65%; inconclusive means about -30% to -65%; inactive means above about -30%; further: on the % scale 0 is the no-effect control and ±100 the full control effect; compound concentration not given in the record
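AlphaScreen with 125 nM GST-E1A and 125 nM His-CtBP (5X stocks) in Tris pH 8.0, 300 mM NaCl, BSA, Tween 20, TCEP. Compounds preincubated 2 h at 37 deg C, then glutathione donor/nickel acceptor beads added for 1 h at 37 deg C in dark.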
Six1-Eya2 blk – blocks human Six1 binding to Eya2 | Q15475+O00167 | AlphaScreen GST-Six1/His-Eya2 binding, biochemical; hits give low values; control for the full effect not named in the record | activity change, % (no concentration beside the values) | 360,000 tested, 0.56% active; in the data active = activity change below about -65%; inconclusive = about -30% to -65%; inactive = above about -30%; further: on the % scale 0 is the no-effect control and ±100 the full control effect; compound concentration not given in the record
Target sequence (O00167 whole entry, looked up): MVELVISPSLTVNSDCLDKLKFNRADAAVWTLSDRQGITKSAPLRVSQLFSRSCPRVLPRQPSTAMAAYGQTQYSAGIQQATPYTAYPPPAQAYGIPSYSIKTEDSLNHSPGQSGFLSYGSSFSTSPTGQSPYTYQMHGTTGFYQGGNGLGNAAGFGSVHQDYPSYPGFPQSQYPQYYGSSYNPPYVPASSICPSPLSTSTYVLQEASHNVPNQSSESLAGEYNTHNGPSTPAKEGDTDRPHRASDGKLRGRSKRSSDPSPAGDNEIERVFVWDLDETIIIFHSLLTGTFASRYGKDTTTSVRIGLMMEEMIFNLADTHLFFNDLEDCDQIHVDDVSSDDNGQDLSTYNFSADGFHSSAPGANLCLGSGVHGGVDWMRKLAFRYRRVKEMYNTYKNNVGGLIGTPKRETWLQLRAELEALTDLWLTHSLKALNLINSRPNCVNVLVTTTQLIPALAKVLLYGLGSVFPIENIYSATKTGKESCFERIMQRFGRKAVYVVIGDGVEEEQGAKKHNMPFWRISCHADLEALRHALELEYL
Target sequence (Q15475 whole entry, looked up): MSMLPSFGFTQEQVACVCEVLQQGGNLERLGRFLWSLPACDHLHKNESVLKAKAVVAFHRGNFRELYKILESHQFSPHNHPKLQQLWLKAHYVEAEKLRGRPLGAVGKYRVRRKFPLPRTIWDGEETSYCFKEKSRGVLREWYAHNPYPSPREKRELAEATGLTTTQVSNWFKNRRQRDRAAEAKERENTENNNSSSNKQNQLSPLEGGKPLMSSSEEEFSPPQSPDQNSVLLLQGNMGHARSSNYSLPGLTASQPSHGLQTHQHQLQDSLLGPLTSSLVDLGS
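Homogeneous AlphaScreen proximity assay pairing GST-Six1 with His-tagged Eya2 (added as 5X mix: 250 nM and 500 nM) in 50 mM Tris pH 8.0, 300 mM NaCl, 1 mM TCEP. Glutathione donor and nickel acceptor beads; 1 h, 37 °C, dark.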
The depositor's hits bear a star; u = inconclusive; x = not tested or not shown; [ ] = remark or other dose. This is a random part of the collection; overall some 1.4% were active at least once.

SMILES	D2 PAM	D2 agonist	gsp ag	gsp antag	CtBP-E1A inh	Six1-Eya2 blk
O=C(c1c(Cl)cccc1Cl)N1CCN(c2ccccn2)CC1	7	0.2	5%	-5%	-1	-1
COCCNC(=O)/C(C#N)=C/C=C/c1ccccc1[N+](=O)[O-]	8	2.7	-16%[15.4 µM]	-12%	-11	-4
CCc1ccc(C2=Nn3c(nnc3-c3cccs3)SC2)cc1	-1	0.6	4%	-29%	u	u
CCc1cccc(OCC(=O)Nc2ccc(C(=O)O)cc2NC(=O)COc2cccc(CC)c2)c1	-1	4.4	-37%[inhibitor]	u	-1	-3
CCn1nc(C(=O)OCC(=O)Nc2nc(-c3ccc(OC)cc3)cs2)c2ccccc2c1=O	4	2.1	-4%	-21%	2	-2
O=C(COc1cccc2ccccc12)N/N=C/c1ccc(Sc2nc3ccccc3s2)o1	18	2.4	23%	-11%	-9	-10
COc1ccc(CCNC(=O)C(=O)NCc2ccc(C(C)C)cc2)cc1OC	1	0.5	25%	4%	8	-1
CCc1sc(C(=O)N2CCc3ccccc32)cc1C	-17	-1.0	-23%	-23%	x	23
CS(=O)(=O)Nc1cccc(S(=O)(=O)N2CCN(C(=O)c3ccccc3)CC2)c1	-6	-3.1	-16%[15.4 µM]	-6%	5	-1
Clc1ccc2c(c1)C1OCCC1C(c1ccco1)N2 (stereo not drawn)	-7	-2.8	-2%	18%	-6	-13
O=C(CCN1CCN(Cc2ccccc2)CC1)Nc1cccc(Cl)c1	7	-2.8	10%	-7%	0	6
O=C(c1cccc(F)c1)N1CCN(C(=O)c2nn3cccnc3c2Cl)CC1	-8	0.7	9%	7%	22	10
CC1CCCCN1c1nnc(NC(=O)Cn2c(=O)oc3ccccc32)s1 (stereo not drawn)	-2	-4.2	5%	-2%	-2	7
C[C@@H]1CC=C[C@H]2[C@H]1C(=O)N(Cc1ccccc1)[C@H]2c1cccc([N+](=O)[O-])c1	-14	0.0	x	-10%	-9	-14
CCc1nn(C(C)C(=O)N2CC(C)CC(C)C2)c(=O)c2cc3occc3n12 (stereo not drawn)	8	-2.9	1%	8%	3	5
CN(Cc1ccccc1)Cc1cc(=O)oc2ccc3ccccc3c12	-7	-5.7	x	x	25	11
O=C(NCc1ccc(F)cc1)C1CCN(S(=O)(=O)N2CCCCC2)CC1	-8	2.9	4%	9%	11	3
O=C(Oc1ccc(N(Cc2cccs2)C2=NS(=O)(=O)c3ccccc32)cc1)c1ccc(Cl)cc1	-10	-1.0	-4%	-10%	-5	-13
C#CCOCCOCCOCCNc1nc(N2CCN(C(=O)[C@H](CCCCN)n3cc(CC(C)O)nn3)CC2)nc(N2CCN(C(=O)[C@H](CCCCN)n3cc(CC(C)O)nn3)CC2)n1 (stereo partly drawn)	-3	-1.2	x	9%	6	5
Clc1ccc(-c2nnc(Sc3nc4ccccc4o3)c3ccccc23)cc1	-9	-3.3	-37%	-19%	-3	-9
O=C1/C(=C/c2ccccn2)COc2ccccc21	-1	-1.0	-6%[15.4 µM]	-3%	8	8
O=C(CCSCc1ccccc1Cl)NCc1cccs1	4	1.3	1%[15.4 µM]	-13%	-11	9
Cc1cccc(NC(=O)Nc2ccc(OCc3ccccc3)cc2)n1	-8	-1.4	22%[15.4 µM]	-15%	7	0
Cn1c(=O)oc2cc(S(=O)(=O)N3CCC(C(=O)N4CCN(c5ccccc5)CC4)CC3)ccc21	-1	4.0	15%	-14%	3	1
CC(NC(=O)CCCCCN1C(=O)c2ccccc2C1=O)c1ccc2c(c1)CCCC2 (stereo not drawn)	11	1.2	9%	-26%	4	4
O=C(Cc1ccc([N+](=O)[O-])cc1)Nc1ccc2c(c1)CCC2	-10	-1.0	4%[15.4 µM]	-13%	-15	-6
COc1ccc(CCNC(=O)COC(=O)Cc2ccc(OC)cc2)cc1	-13	0.4	-4%	9%	16	8
COc1ccccc1CNC(=O)[C@H](CCSC)NC(=O)[C@@H]1Cc2ccccc2CN1	-51	-5.9	x	-1%	-2	0
Cc1cccc(C)c1-n1nnnc1C(c1ccccc1)N1CCN(C/C=C/c2ccccc2)CC1 (stereo not drawn)	-14	-8.7	x	x	-27	u
CCOc1ccc(N2CC(C(=O)Nc3ccc(S(=O)(=O)Nc4nccs4)cc3)CC2=O)cc1 (stereo not drawn)	17	-1.5	-2%[15.4 µM]	21%	-12	-29
CCCC(=O)N1CCC1(C)C(=O)NS(=O)(=O)c1ccc(Cl)cc1 (stereo not drawn)	0	-2.9	x	x	1	-4
Cc1[nH]nc2c1C(Cc1ccccc1)C(C#N)=C(N)O2 (stereo not drawn)	3	0.2	-22%	2%	-6	-10
Cc1[nH]c(C)c(S(=O)(=O)N2CCN(c3cccc(Cl)c3)CC2)c1C(=O)N1CCCCC1	-7	1.6	-5%	10%	x	-9
O=C(CNC(=O)c1ccccc1F)Nc1ccccc1C(F)(F)F	4	2.2	0%	7%	9	4
CN(C)CCCNC(=O)C[C@H]1C[C@H](C(=O)N2CCCCC2)[C@@]2(CCc3ccccc3)c3[nH]c4cc(CCC(=O)N(C)C)ccc4c3CCN2C1=O	-10	-1.3	x	9%	-1	-1
CSc1nsc(SCC(=O)N2CCCc3ccccc32)n1	-16	-3.1	0%	2%	-8	0
COc1ccc(C(=O)OCC(=O)NCc2ccco2)cc1S(=O)(=O)N1CCN(c2cccc(Cl)c2)CC1	-8	-0.7	-44%[inhibitor]	12%	-7	-1
CC(=O)Nc1sc(C)c(C)c1C(=O)OCC(=O)N(CC(C)C)C1CCS(=O)(=O)C1 (stereo not drawn)	0	-0.3	-42%[inhibitor]	-11%	1	-4
COc1ccc(OC)c(NC(=S)N2CCCC2)c1	6	-2.6	-37%[inhibitor]	3%	1	4
Cc1ccc(NC(=O)N2CCCCC2)cc1NC(=O)N1CCCCC1	-11	-1.7	9%	11%	x	-2
O=C(Nc1ccc2oc(-c3ccccc3)nc2c1)C1CCCO1 (stereo not drawn)	-9	4.0	3%[15.4 µM]	-7%	0	11
O=C(Nc1ccc(F)c(Cl)c1)c1cc(C2CCCCN2C(=O)c2ccc(Cl)cc2)on1 (stereo not drawn)	-4	-3.1	x	x	2	-7
Nc1nnnn1/N=C/c1ccc(Cl)cc1	0	0.1	-2%[15.4 µM]	4%	8	-2
Brc1ccc(-c2cn3nc4c(nc3n2)CCCC4)cc1	-10	-1.1	-24%	-3%	27	14
O=C(NNC(=O)c1ccccc1[N+](=O)[O-])c1ccccn1	7	8.0	-5%[15.4 µM]	12%	2	-77*
CCN(CC)c1ccc(/C=C/c2ccc3ccc(OC)cc3[n+]2CC)cc1	-16	-5.4	16%	u	x	-4
O=C(CNS(=O)(=O)c1cccs1)NCCc1ccc(Cl)cc1	-3	-0.2	-9%[15.4 µM]	12%	-13	-7
Cn1nc(C(=O)OCC(=O)Nc2sccc2C(N)=O)c2ccccc2c1=O	1	4.2	-2%[15.4 µM]	-17%	2	-7
COc1ccc(C2N(Cc3ccccc3)CCN2Cc2ccccc2)cc1[N+](=O)[O-]	-13	-3.2	-4%[15.4 µM]	-11%	-9	-1
CCCOC(=O)c1ccc(NC(=O)Cc2cccs2)cc1	2	4.0	-16%	-2%	14	-2
CCOC(=O)C1CCN(CC(C)(C)NS(=O)(=O)c2ccccc2)CC1	-8	9.2	u	1%	3	-2
C=CCc1ccc(OCCCNCc2ccccc2)c(OC)c1	-79	-1.1	13%	11%	x	-3
O=C(O)c1ccc(C=NN=C2c3ccccc3-c3ccccc32)cc1	-5	-3.9	2%	-21%	-18	-26
O=C1C2C(c3ccccc3)CC=CC2[C@H](c2cccc([N+](=O)[O-])c2)N1Cc1ccccc1 (stereo partly drawn)	-7	-2.2	x	-16%	-23	-15
O=C(O)/C=C/C(=O)N1Cc2cc3ccccc3nc2C1	-11	-0.3	-30%[inhibitor]	3%	x	-12
O=C(CN(c1ccccc1)S(=O)(=O)c1ccccc1[N+](=O)[O-])N1CCCC1	-1	-4.6	-13%	4%	5	-3
CCOC(=O)C1CCCCN1S(=O)(=O)c1cc2c(cc1C)NC(=O)CO2 (stereo not drawn)	-1	-1.6	21%	-6%	3	2
Cc1ccc(CNC(=O)C2=NNC(=O)CC2)cc1	-10	-2.1	3%	8%	5	3
CN(C)CCCNC(=O)C[C@H]1C[C@H](C(=O)N2CCOCC2)[C@@]2(CCC3CCCC3)c3[nH]c4cc(CCC(=O)N(C)C)ccc4c3CCN2C1=O	-3	-2.1	x	10%	1	2
C=CCNC(=S)NNC(=O)c1csc(CC)c1	-16	-2.4	4%	26%	2	4

Going on with the list.
SMILES	D2 PAM	D2 agonist	gsp ag	gsp antag	CtBP-E1A inh	Six1-Eya2 blk
Cc1nnc(SCc2ccc(F)cc2)n1NC/C=C/c1ccccc1	-3	-2.8	-1%	-12%	1	2
COc1ccc(/C=N/Nc2nc(N3CCCC3)nc(N3CCCC3)n2)cc1O	7	0.1	1%	-17%	-6	-7
CC(=O)c1ccc(NC(=O)CSc2nc(N3CCOCC3)nc(N3CCOCC3)n2)cc1	-3	-3.1	-5%	-1%	-1	24
CCOCCCn1c(SCC(=O)Nc2ccc(C(N)=O)cc2)nc2ccccc2c1=O	-18	-1.5	7%	5%	-3	0
O=C(NC1CC1)c1ccc(Cl)c(S(=O)(=O)N2CCOCC2)c1	-5	-0.3	-3%[15.4 µM]	-9%	8	-3
O=[N+]([O-])c1cc(Br)c(Nc2ccccc2)c([N+](=O)[O-])c1	-7	11	4%	15%	x	-4
C=CCn1cc(CN2CCC(C(=O)Nc3ccc(Oc4cccnc4)cc3)CC2)c(C)n1	-11	-4.2	2%	3%	0	-2
CN1Cc2sc(NC(=S)NC(=O)c3ccccc3)c(C#N)c2CC1(C)C	-19	-4.8	10%[15.4 µM]	-11%	-18	-14
CCn1c(SCC(=O)Nc2ccc3c(c2)OCCO3)nnc1C1CC1	6	-1.0	-2%	0%	1	3
COc1ccc(C(=O)Nc2cccc(-c3cc4ccccc4oc3=O)c2)cc1[N+](=O)[O-]	-2	-0.3	-6%[15.4 µM]	-1%	-5	-12
O=C(COC(=O)/C=C/c1ccccc1)NC1CCCC1	1	0.1	5%	0%	x	10
CCc1nnc(NC(=O)C2CCCCN2S(=O)(=O)c2ccccc2)s1 (stereo not drawn)	-14	-2.8	-7%[15.4 µM]	-15%	8	-8

Quoted at random: three compounds from above
SMILES	D2 PAM	D2 agonist	gsp ag	gsp antag	CtBP-E1A inh	Six1-Eya2 blk
CC1CCCCN1c1nnc(NC(=O)Cn2c(=O)oc3ccccc32)s1 (stereo not drawn)	-2	-4.2	5%	-2%	-2	7
CN1Cc2sc(NC(=S)NC(=O)c3ccccc3)c(C#N)c2CC1(C)C	-19	-4.8	10%[15.4 µM]	-11%	-18	-14
C[C@@H]1CC=C[C@H]2[C@H]1C(=O)N(Cc1ccccc1)[C@H]2c1cccc([N+](=O)[O-])c1	-14	0.0	x	-10%	-9	-14
